Screens from PubChem.
2A Renilla = lowers the Renilla signal of an FMDV 2A StopGo reporter | Potency, µM (doses to about 57.5 µM), inactives show at the top dose signal change, negative = less light | HEK cells with a luciferase reporter of 2A StopGo recoding | 120,000 compounds, 0.32% hits | AID 1745857; active means well fitted falling curve with a large enough effect; inconclusive means small, poorly fitted or top-dose-only effect; inactive means no such curve, though single readings can be large or run the other way; further: nearly all actives have a fitted effect of over 55% in size; overnight with compound
StopGo FLuc = lowers the firefly signal of an FMDV 2A StopGo reporter; Potency, µM (highest dose often 57.5 µM), for the others: at the highest dose signal change, negative = less light; AID 1745856; HEK cells with a luciferase reporter of 2A StopGo recoding; 120,000 compounds, 0.23% hits; active = well fitted falling curve with a large enough effect; inconclusive = small, poorly fitted or top-dose-only effect; inactive = no such curve, though single readings can be large or run the other way; further: nearly all actives have a fitted effect of over 60% in size; overnight with compound
* = called active by the depositor; ? = inconclusive; & = joins results of further samples; [ ] = dose if it differs, or a comment. On the % scale 0 is the no-effect control and ±100 the full control effect; potency means the concentration at half of the fitted maximal effect. Not all compounds are listed. The share of hits here may be higher or lower than overall.

Start of the listing, in advance:
SMILES	2A Renilla	StopGo FLuc
N#Cc1nc(/C=C/c2ccccc2Cl)oc1N1CCN(C(=O)c2ccco2)CC1	5%	7%
CCCCNC(=O)c1ccc(-c2nc(CN3CCc4ccccc43)c(C)o2)cc1	7%	22%

The list itself, from the start:
SMILES	2A Renilla	StopGo FLuc
N#Cc1nc(/C=C/c2ccccc2Cl)oc1N1CCN(C(=O)c2ccco2)CC1	5%	7%
CCCCNC(=O)c1ccc(-c2nc(CN3CCc4ccccc43)c(C)o2)cc1	7%	22%
Cc1ccccc1-c1cc(-c2ccccc2C)[nH]n1	33%[activator]	184%[activator]
COC(=O)c1ccc(CNCc2ccco2)o1	19%	22%
COc1ccc(Cl)cc1NC(=O)CSc1nc(=O)[nH]c2c1CCCC2	-7%	-20%
CCn1cc(S(=O)(=O)c2ccc(C)cc2)c(=O)c2cc(F)c(N3CCCCCC3)cc21	8%	1%
O=C(Cn1cc(S(=O)(=O)Cc2ccc(F)cc2)c2ccccc21)NCc1ccccc1Cl	19%	3%
COc1cccc(CNC(=O)c2ccc3oc(=O)n(Cc4ccccc4)c3c2)c1	7%	-10%
O=C(CCn1c(-c2ccccc2)cc2ccccc21)N1CCN(CCO)CC1	25%	2%
COc1ccc(-c2nc(Cn3c(SCc4ccccc4F)nc4cccnc43)c(C)o2)cc1	-9%	-6%
CC(C)CN1CCN(c2nc3c(c(=O)[nH]c(=O)n3C)n2Cc2ccccc2F)CC1	-5%	0%
N#C/C(=C\c1ccc(-c2ccc(C(=O)O)cc2)o1)c1nc2ccccc2[nH]1	-21%	25%
COc1ccc(CNCCSc2nnnn2-c2ccccc2)c(OC)c1	-6%	2%
O=C(COc1ccc(Cl)cc1)OCCCC(=O)c1ccc(F)cc1	-10%	20%
Cc1ccc(C(=O)/C=C\N(C)C)cc1C	-5%	28%
CC(C)(Oc1ccc(Br)cc1)C(=O)NCc1ccc(-c2nn3cnnc3s2)cc1	?	?
CCCNC(=O)COc1cc(C)c2c(C)nn(-c3ccc(CC)cc3)c2n1	-3%	5%
N#CCCN(CCC#N)C(=O)Cc1coc(-c2ccccc2)n1	10%	30%[activator]
C#CCOc1ccc(-c2nnc(Nc3ccc(NC(C)=O)cc3)c3ccccc23)cc1	11%	-11%
CC1CCC(NC(=O)c2cn(C)c3ccccc23)CC1 (centres undefined)	26%	127%[activator]
COc1ccccc1N1CCN(S(=O)(=O)CCNC(=O)COc2ccc(F)cc2)CC1	-2%	-2%
CN(Cc1ccccc1)C(=O)COC(=O)c1c[nH]c2ccccc12	13%	9%
CCCC12CN3CC(C)(CN(C1)C31C(=O)N(C)c3ccccc31)C2=O (centres undefined)	-4%	-8%
CCOC(=O)Cc1ccc(NC(=O)N(Cc2ccc(CC)cc2)Cc2cn[nH]c2-c2ccc(OC)cc2)cc1	-7%	-13%
COc1ccc(-c2cc3c(=O)[nH]nc(SCC(=O)N4CCCCC4)n3n2)cc1OC	0%	-5%
Nc1nc(COC(=O)c2ccc(O)cc2)nc2ccccc12	64%[activator]	61%[activator]
N#Cc1ccccc1NC(=O)C(=O)NCCc1csc(-c2ccc(C(F)(F)F)cc2)n1	-8%&-8%	-5%&-16%
Cc1ccc(NS(=O)(=O)c2ccc(C(=O)NCC3CCCO3)cc2)cc1C (centres undefined)	63%[activator]	?
CCCCN1C(=O)C2(/C(=C(\O)c3ccc(OC)c(C)c3)C(=O)C(=O)N2CCOC)c2ccccc21 (centres undefined)	17%	5%
Cc1ccc(/C=C/C(=O)c2ccc(-c3ccccc3)cc2)c(C)c1	-6%[1.06 µM]	47%[activator]
CCC(Sc1nncn2c1cc1occc12)C(=O)Nc1ccc(C)c(Cl)c1 (centres undefined)	5%	-15%
COc1cccc(C(=O)NCC(O)c2ccc(C)cc2)c1 (centres undefined)	?	20%
CCN(CC(=O)Nc1c(F)cccc1F)C(=O)CCNS(=O)(=O)c1ccc(F)c(F)c1	32%[activator]	15%
COc1ccccc1N1CCN(C(=O)CNS(=O)(=O)c2ccc(Br)s2)CC1	33%[activator]	-14%
COc1cc(CNC(=O)C(C)Oc2ccccc2)ccn1 (centres undefined)	-12%	-8%
COC(=O)[C@@]1(C)CCCC2(C)c3ccc(C(C)C)cc3CCC21 (some centres undefined)	1%	-7%
CS(=O)(=O)c1ccccc1C(=O)OCc1cccc(F)c1F	118%[activator]	0%
CCCC(=O)Nc1ccc(-c2csc(NC3CC3)n2)cc1	79%[activator]	109%[activator]
COc1ccc(-c2cc(C(=O)OCC(=O)c3c(N)n(C)c(=O)n(C)c3=O)c3ccccc3n2)cc1	4%	29%
Cc1oc(-c2cccc(Br)c2)nc1CN1CCC(C(=O)NCCc2ccc(Cl)cc2)CC1	0%	-7%

Looked up above:
Under 2A Renilla, Cc1ccc(NS(=O)(=O)c2ccc(C(=O)NCC3CCCO3)cc2)cc1C (centres undefined) has the entry 63%[activator]
Under 2A Renilla, COc1ccccc1N1CCN(S(=O)(=O)CCNC(=O)COc2ccc(F)cc2)CC1 has the entry -2%
Under StopGo FLuc, CCC(Sc1nncn2c1cc1occc12)C(=O)Nc1ccc(C)c(Cl)c1 (centres undefined) has the entry -15%
Under 2A Renilla, COC(=O)[C@@]1(C)CCCC2(C)c3ccc(C(C)C)cc3CCC21 (some centres undefined) has the entry 1%

Further records
SMILES	2A Renilla	StopGo FLuc
O=C(Nc1ccc2c(c1)OCCO2)C(=O)c1c[nH]c2ccc(F)cc12	16%	203%[activator]
Cc1ccc(C2=CC(c3ccccc3F)n3c(nc4ccccc43)N2)cc1C (centres undefined)	10%	55%[activator]
CC(=O)c1ccc(NC(=O)C(C)Oc2cccc(F)c2)cc1 (centres undefined)	4%	0%
O=C(Nc1ccc(Cl)cc1)c1cc(S(=O)(=O)N2CCc3ccccc32)ccc1F	9%	0%
S=c1[nH]c2ccccc2s1	5%	32%[activator]
CCOc1ccccc1N1CC(c2nc3ccccc3n2CCOc2ccc(OC)cc2)CC1=O (centres undefined)	139%[activator]	-28%
COC(=O)c1ccc(OC(=O)c2ccc3c(c2)NC(=O)CS3)cc1	12%	22%
Cc1ccc(CCNc2ncnc3onc(C)c23)cc1	1.6µM*	1.8µM*
COc1cc(CN2CCCC2c2cc(C(C)C)on2)cc(OC)c1OC (centres undefined)	7%	6%
CCOc1ccccc1CNC(=O)c1cccn1-c1nnc(N2CCCC2)s1	64%[activator]	-14%
Cc1cc(-n2c(C)cc(C(=O)CSc3nnc(C(C)Oc4ccccc4F)o3)c2C)no1 (centres undefined)	24%	1%
Cc1cc(C)cc(S(=O)(=O)n2cc3c(=O)n(C)c(=O)n(C)c3n2)c1	0%	2%
O=C(c1ccccn1)N(Cc1cccs1)C1CC1	5%	-3%
Cc1ccccc1-c1nc2cc(NC(=O)c3ccco3)ccc2o1	1%	184%[activator]
O=C(CSc1nc2c([nH]c3ccccc32)c(=O)n1-c1ccccc1)Nc1ccc2c(c1)OCCO2	-3%	-26%
CCOc1ccc(C2=NC(c3ccc(OC)cc3)=Nc3ccc(Cl)cc3N2)cc1	-4%	92%[activator]
Cc1ccc(NC(=O)NC2CCOc3ccccc32)cc1 (centres undefined)	9%	134%[activator]
Cc1cc(S(=O)(=O)NCC(c2ccc(N(C)C)cc2)N2CCOCC2)ccc1F (centres undefined)	-11%	-19%
CCCCn1c(=O)n(CC(C)(C)O)c(=O)c2c1nc(CO)n2CCC	-9%	-7%
COc1ccc2cc3cc(C(=O)Nc4cc(C)c(Cl)cc4OC)oc3nc2c1	-13%	-30%
Cc1ccc(C)c(N2CCN(C(=O)c3cc(S(=O)(=O)N4CCC(C)CC4)cn3C)CC2)c1	-10%	-14%
COC(=O)c1sccc1S(=O)(=O)N1CCN(c2ccccc2)CC1	15%	0%
COc1ccc(-c2nnc(Nc3ccc(OCC(N)=O)cc3)c3ccccc23)cc1	4%	-21%
O=C(NCC1OCCc2ccccc21)c1ccccc1Br (centres undefined)	11%	77%[activator]
COc1ccc(NC(=O)c2ncn(-c3ccccc3)n2)cc1Cl	-1%	82%[activator]
COC(=O)c1ccc(NS(=O)(=O)c2ccc3[nH]c4c(c3c2)CCCC4)cc1	295%[activator]	19%
Clc1ccc2c(c1)CCc1cccnc1C2=C1CCNCC1	-12%	-4%[11.5 µM]
COc1cccc(NCCC#N)c1	17%	16%
CCOc1ccc(-n2cc(-c3ccccc3)c3c(NC(C)C)ncnc32)cc1	-8%	-15%
CC(C)N(C(=O)COc1ncnc2ccccc12)c1ccccc1	0%	33%[activator]
Cc1nc(-c2ccc(OCC(C)C)c(C#N)c2)sc1C(=O)O	-5%	?
O=C(NC1CC1)c1ccc(Cn2c(SCc3cccc(F)c3)nc3cccnc32)cc1	15%	-7%
CC(C)CC(NC(=O)C(C)NC(=O)OCc1ccccc1)c1ccccc1 (centres undefined)	2%	12%
Cn1nc(-c2ccccc2F)c2cc(C(=O)NCc3cccc(Cl)c3)sc21	-2%	15%
CCc1ccc(NS(=O)(=O)c2ccc3[nH]cc(C(=O)NCc4ccc(C)cc4)c(=O)c3c2)cc1	143%[activator]	-12%
OCCCNC(=S)Nc1ccc(Cl)cc1	30%	70%[activator]
CCN1CCN(c2ncc3c(n2)CCN(Cc2ccccc2C)C3)CC1	5%	-6%
CCOC(=O)CNC(=O)c1cc2c(=O)n3cccc(C)c3nc2n1C	-15%	5%
CCOc1ccc(C2C(=O)N(C3CCCCC3)CC(=O)N2CCC2=CCCCC2)cc1OC (centres undefined)	5%	-21%
CC(C)N1C(=O)C(O)(c2c[nH]c3ccccc23)c2ccccc21 (centres undefined)	-9%&-16%	-5%&-12%
Cc1cc2ccccc2n1CC(=O)NCC1(CC(=O)O)CCCCC1	-6%	-5%
Cc1ccccc1C(=O)N1CCN(c2oc(C3CC3)nc2C#N)CC1	-1%	5%
CC(=O)Nc1ccc(NC(=O)CC(C)n2ccc(C)n2)cc1 (centres undefined)	15%	9%
C=CCNC(=S)N/N=C/c1cccnc1	7%	4%
COc1ccccc1C(=O)Nc1ccc(NC(=O)c2cccs2)cc1	-19%	-23%
CCOc1ccc(CCNC(=O)c2ccc3nc(N4CCC(C)CC4)sc3c2)cc1OCC	-3%	-31%
CCC(C)(CNC(=O)c1cc(=O)c2ccccc2o1)N1CCOCC1 (centres undefined)	-6%	9%
COc1cccc(Nc2n[nH]nc2C(=O)Nc2ccc(C)cc2Br)c1	?	0%
Cc1cccc(N2CCN(S(=O)(=O)c3cn(C)c(C)n3)CC2)c1C	3%	18%
CCN(Cc1ccccc1)c1ccc(/C=N/NS(=O)(=O)c2cc(C)ccc2C)cc1	399%[activator]	16%
O=C(O)c1ccccc1CCc1ccccc1	1%	3%
Fc1ccc(OCc2nnc3sc(COc4ccc(Cl)cc4)nn23)cc1	?	?
CCc1noc(C)c1C(=O)Nc1sc(Cc2ccccc2)cc1C(N)=O	2%	17%
CCOC(=O)c1ccc(NC(=O)c2c(NCc3cccs3)sc3c2CCCCC3)cc1	39%[activator]	-6%
CCNc1nc(Oc2ccc(=O)n(-c3ccccc3)n2)nc(N(C)C)n1	-11%	26%
CSc1nc2ccccc2c(=O)n1CC(=O)c1cc(C)c(C)cc1C	11%	7%
Cc1cc(CNC(=O)COc2ccccc2)c2ccccc2n1	?	0%
Cn1cc(C(=O)OCC(=O)NC2CCCCCCC2)c2ccccc21	11%	11%
Cc1cccc(NC(=O)c2cc(S(=O)(=O)N3CCc4ccccc43)ccc2F)c1C	42%[activator]	-25%
Cc1cc(C)cc(NC(=O)c2ncn(-c3ccccc3)n2)c1	4%	104%[activator]

Entries of single compounds from above. Screens in order: 2A Renilla, StopGo FLuc
C=CCNC(=S)N/N=C/c1cccnc1 reads 7%, 4%
Cn1cc(C(=O)OCC(=O)NC2CCCCCCC2)c2ccccc21 reads 11%, 11%
CCNc1nc(Oc2ccc(=O)n(-c3ccccc3)n2)nc(N(C)C)n1 reads -11%, 26%
CCN(Cc1ccccc1)c1ccc(/C=N/NS(=O)(=O)c2cc(C)ccc2C)cc1 reads 399%[activator], 16%
Fc1ccc(OCc2nnc3sc(COc4ccc(Cl)cc4)nn23)cc1 reads ?, ?

(cont.)
SMILES	2A Renilla	StopGo FLuc
COc1ccc(-c2c(C)nn3c(C(F)(F)F)cc(-c4ccc(Br)cc4)nc23)cc1	8%	-15%
CCOC(=O)c1c(NC(=O)COc2ccccc2Br)sc2c1CCCCC2	-3%	13%
CCOc1ccccc1NC(=O)Nc1ccc2nc(NC(C)=O)sc2c1	16%	110%[activator]
O=C(NCCC1CCCO1)c1cc(-c2ccc(F)cc2)nc2ccccc12 (centres undefined)	30%	38%[activator]
Cc1ccc(OCn2ccc(C(=O)NCc3ccnn3C)n2)c(C)c1	?	?
CC(NC(=O)C1CCCc2ccccc21)c1ccc(Cl)cc1 (centres undefined)	17%	17%
CCOC(=O)C1CCCN(S(=O)(=O)c2ccc3[nH]c(=O)ccc3c2)C1 (centres undefined)	?	?
COc1ccc(CNC(=O)CCNS(=O)(=O)c2ccc3c(c2)CCCC(=O)N3)cc1	13%	16%
NC(=O)C1CCN(S(=O)(=O)c2ccc(N3CCCCS3(=O)=O)cc2)CC1	?	-2%
CCC(C)NC(=O)Cn1c(=O)n(-c2cc(OC)cc(OC)c2)c(=O)c2ccccc21 (centres undefined)	-16%	-22%
O=C(Cn1ncc2c3ccccc3n(Cc3ccccc3F)c2c1=O)NCCc1ccc(Cl)cc1	-5%	18%
O=C(OCCOc1ccccc1)c1ccccc1C(=O)c1ccc(Cl)cc1	15%	1%
CN1C(=O)c2ccccc2Sc2ccc(NC(=O)N3CCN(c4cccc(Cl)c4)CC3)cc21	?	?
NC[C@@H]1CCCN2CCCC[C@H]12	-9%	-6%
